High-throughput results from PubChem.
Vaccinia stage: blocks a specific stage of Vaccinia orthopoxvirus infection. Vaccinia-infected cells, mCherry/Venus stage reporter fluorescence; stronger effect = lower value; some inactives read as strong as hits. activity change (mCherry), % (concentration not given with the values). hit rate 0.01% among 89,000;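 active = mCherry past -33% and 40 or more points under the early reporter, replicates agreeing; inconclusive = past -33% without that gap or agreement; tested in A549 cells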;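 also: scaled between vehicle wells and reference inhibitor wells; 23 nL library stock went into each well; one replicate is shown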
Vaccinia stage Venus: also measured in Vaccinia stage; calls as there; activity change (Venus), %; measured here: Venus reporter, other viral stage;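 negative = less Venus signal; first of two replicates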
Active calls of the source: *; ? = inconclusive; / = not tested or not shown; & = joins results of further samples. An excerpt (hit frequency here may not be typical).

Fields: Vaccinia stage Venus	Vaccinia stage
[1] C[C@H]1CN([C@@H](C)CO)C(=O)c2cc(-c3ccccc3)cnc2O[C@H]1CN(C)C(=O)Nc1ccc2c(c1)OCO2
    2	-8
[2] C[C@H](O)C#Cc1ccc2c(c1)O[C@H](CN(C)C(=O)CN(C)C)[C@@H](C)CN([C@@H](C)CO)S2(=O)=O
    2	0
[3] CC(C)NC(=O)N1[C@@H](CO)[C@@H](c2ccccc2)C12CN(C(=O)Cc1cccnc1)C2
    1	4
[4] COCC(=O)N(C)C[C@@H]1Oc2cc(C#Cc3cccnc3)ccc2S(=O)(=O)N([C@H](C)CO)C[C@@H]1C
    -2	0
[5] C=CCNC(=O)[C@@H]1[C@H]2C(=O)O[C@H](c3ccccc3)[C@H](c3ccccc3)N2[C@H](c2ccccc2OCCO)[C@@]12C(=O)N(C(=O)OCCOC)c1ccccc12
    /	?
[6] O=C(C[C@H]1C=C[C@H](NC(=O)Nc2ccccc2F)[C@@H](CO)O1)NCc1ccc(Cl)cc1
    3	7
[7] O=C(C[C@@H]1C=C[C@@H](NC(=O)c2cccc(F)c2)[C@H](CO)O1)NCc1ccc(Oc2ccccc2)cc1
    1	-1
[8] O=C(N[C@@H]1CC[C@@H](CCNS(=O)(=O)c2ccccc2Cl)O[C@H]1CO)c1ccc(F)cc1
    -9	-17
[9] CN(C)CC(=O)N1[C@@H](C#N)[C@@H](c2ccccc2-c2ccc(C(=O)N(C)C)cc2)[C@@H]1CO
    2	8
[10] O=C(CCN1CCCCC1)NCC[C@H]1CC[C@@H](NS(=O)(=O)c2cccc(Cl)c2)[C@H](CO)O1
    13	5
[11] CCCNC(=O)C[C@H]1CC[C@H]2[C@@H](COc3ccc(NC(=O)c4ccc(Cl)cc4)cc3C(=O)N2C)O1
    -9	-15
[12] CN(C)C(=O)C[C@H]1CC[C@@H]2[C@H](COC[C@H](O)CN2CC2CCCC2)O1
    3	6
[13] CCNC(=O)[C@H]1[C@H](CO)[C@H]2Cn3c(ccc(C4=CCCC4)c3=O)[C@H]2N1C(=O)CC1CC1
    -5	2
[14] CC=Cc1ccc2n(c1=O)C[C@@H]1[C@@H](CO)[C@H](C(=O)NCC3CC3)[C@H]2N1C(=O)c1ccccc1 (mixture of isomers)
    4	10
[15] C[C@H](CO)N1C[C@H](C)[C@@H](CN(C)C(=O)c2ccccc2)OCc2ccccc2-c2c(n(C)c3ccccc23)C1=O
    -11	-12
[16] O=C(C[C@@H]1C[C@H]2c3cc(NC(=O)Cc4ccncc4)ccc3O[C@H]2[C@H](CO)O1)NCc1ccc2c(c1)OCO2
    7	1
[17] COC(=O)C[C@@H]1CC[C@H]2[C@H](COc3ccc(NS(=O)(=O)c4ccccc4Cl)cc3C(=O)N2C)O1
    11	12
[18] C[C@@H]1CN([C@@H](C)CO)C(=O)c2cc(NC(=O)CCCN(C)C)ccc2O[C@H]1CN(C)S(=O)(=O)c1cccs1
    -2	5
[19] Cc1noc(C)c1NC(=O)N(C)C[C@H]1OCCCC[C@@H](C)Oc2ccc(NS(=O)(=O)c3ccc(F)cc3)cc2C(=O)N([C@@H](C)CO)C[C@H]1C
    0	11
[20] C[C@@H]1CN([C@H](C)CO)C(=O)c2cccc(NS(=O)(=O)c3ccccc3)c2O[C@@H]1CN(C)Cc1ccc(Oc2ccccc2)cc1
    /	?
[21] C[C@H]1CN([C@@H](C)CO)C(=O)CCCn2nncc2CO[C@H]1CN(C)C(=O)Nc1ccc(C(C)(C)C)cc1
    16	14
[22] COCCNC(=O)[C@H]1[C@H](CO)[C@H]2Cn3c(ccc(-c4ccc(F)cc4)c3=O)[C@@H]1N2C(=O)NC(C)C
    6	2
[23] C[C@H](CO)N1C[C@H](C)[C@@H](CN(C)Cc2cccnc2)OCc2cnnn2CCCC1=O
    3	8
[24] C[C@H](CO)N1C[C@H](C)[C@@H](CN(C)C)Oc2ccc(NC(=O)Nc3ccccc3)cc2CC1=O
    2	9
[25] CN1C(=O)c2cc(NC(=O)c3ccc4c(c3)OCO4)ccc2OC[C@@H]2O[C@H](CC(=O)O)CC[C@H]21
    0	6
[26] Cc1noc(C)c1S(=O)(=O)Nc1ccc2c(c1)C(=O)N([C@H](C)CO)C[C@@H](C)[C@H](CN(C)C(=O)Nc1cccc3ccccc13)O2
    17	20
[27] O=C(NCCc1ccccc1)[C@H]1[C@H](CO)[C@H]2Cn3c(ccc(-c4cccc(F)c4)c3=O)[C@@H]1N2
    1	-4
[28] Cc1ccc(S(=O)(=O)Nc2ccc3c(c2)C(=O)N([C@H](C)CO)C[C@H](C)[C@H](CN(C)Cc2ccc(C(=O)O)cc2)O3)cc1
    13	34
[29] O=C(C[C@H]1CC[C@@H](NC(=O)C2CCOCC2)[C@H](CO)O1)Nc1ccccc1
    19	21
[30] CO[C@H]1CN(C)C(=O)c2cc(NC(=O)c3ccc4c(c3)OCO4)ccc2OC[C@@H](C)N(CCC(F)(F)F)C[C@H]1C
    -11	-16
[31] C[C@@H]1CN([C@H](C)CO)C(=O)c2cc(C3=CCCC3)cnc2O[C@H]1CN(C)C(=O)NC1CCCC1
    9	11
[32] CCCC#Cc1cnc2c(c1)C(=O)N([C@@H](C)CO)C[C@@H](C)[C@H](CN(C)C(=O)CCN1CCCCC1)O2
    -12	-2
[33] C[C@@H]1CN([C@@H](C)CO)C(=O)c2cc(C#CCN(C)C)cnc2O[C@@H]1CN(C)Cc1cccc(C(=O)O)c1
    9	17
[34] C[C@H]1CN([C@@H](C)CO)C(=O)c2cc(NC(=O)NC3CCCCC3)ccc2O[C@@H]1CN(C)S(C)(=O)=O
    8	14
[35] C[C@H](CO)N1C[C@H](C)[C@H](CN(C)S(=O)(=O)c2ccccc2)Oc2ccc(NC(=O)Cc3cn(C)c4ccccc34)cc2C1=O
    -5	-7
[36] CNC[C@@H]1OCCCC[C@H](C)Oc2ccc(NC(=O)c3ccncc3)cc2C(=O)N([C@@H](C)CO)C[C@@H]1C
    15	21
[37] C[C@H]1CN([C@@H](C)CO)S(=O)(=O)c2ccc(-c3cccc(C#N)c3)cc2O[C@@H]1CN(C)C(=O)Nc1cc(F)ccc1F
    -22	-10
[38] C[C@H]1CN([C@@H](C)CO)S(=O)(=O)c2ccc(C#CC3CC3)cc2O[C@@H]1CN(C)S(C)(=O)=O
    -15&-14	-13&-23
[39] N#C[C@@H]1[C@@H](c2ccc(C#Cc3cccnc3)cc2)[C@@H](CO)N1C(=O)C1CCCCC1
    -2	-9
[40] C[C@@H]1CN([C@@H](C)CO)C(=O)c2cc(NC(=O)Nc3ccc(F)cc3)ccc2O[C@@H](C)CCCCO[C@H]1CN(C)CC1CCCCC1
    /	?
[41] C[C@H]1CN([C@@H](C)CO)C(=O)c2cccc(NC(=O)Nc3cccc4ccccc34)c2O[C@H]1CN(C)S(=O)(=O)c1ccc(F)cc1
    8	8
[42] O=C(C[C@H]1CC[C@@H]2[C@H](COC[C@H](O)CN2Cc2cc(F)cc(F)c2)O1)NC1CCC1
    4	8
[43] C[C@H]1CN([C@@H](C)CO)C(=O)Cc2cc(NC(=O)Nc3ccc(F)cc3)ccc2O[C@@H]1CN(C)Cc1ccc2c(c1)OCO2
    -3	5
[44] Cc1noc(C)c1NC(=O)Nc1ccc2c(c1)CC(=O)N([C@@H](C)CO)C[C@@H](C)[C@H](CN(C)Cc1ccc3c(c1)OCO3)O2
    7	-1
[45] N#C[C@H]1[C@@H](c2ccc(-c3cccc(F)c3)cc2)[C@H](CO)N1C(=O)NC1CCCCC1
    /	?
[46] O=C(Nc1cccc(Cl)c1)N1C[C@@H]2[C@H](c3ccccc31)[C@H](CO)N2C(=O)C1CC1
    6	-11
[47] O=C(N[C@@H]1C=C[C@@H](CC(=O)N2CCCCC2)O[C@@H]1CO)c1cccc(F)c1
    12	13
[48] C[C@@H]1CCCCO[C@H](CN(C)C(=O)CCCN(C)C)[C@@H](C)CN([C@H](C)CO)C(=O)c2cc(NS(C)(=O)=O)ccc2O1
    14	13
[49] C[C@H](CO)N1C[C@H](C)[C@H](CN(C)Cc2ccccc2)Oc2ccc(NC(=O)NC3CCCCC3)cc2CC1=O
    -12	-22
[50] COc1ccc(NC(=O)Nc2ccc3c(c2)[C@H]2C[C@@H](CC(=O)N4CCCCC4)O[C@@H](CO)[C@H]2O3)cc1
    8	10
[51] O=C(C1CC1)N1CCCCN2[C@@H](CO)[C@H](c3ccc(-c4cccc(F)c4)cc3)[C@@H]2C1
    -4	0
[52] Cc1noc(C)c1NC(=O)N1C[C@@H](O)COC[C@H]2O[C@@H](CC(=O)NCC3CC3)CC[C@@H]21
    7	-5
[53] C[C@@H]1CCCCO[C@H](CN(C)Cc2ccccc2)[C@H](C)CN([C@@H](C)CO)C(=O)c2cc(NC(=O)Cc3ccccc3)ccc2O1
    /	?
[54] CC1C=NC(S(=O)(=O)N2CC[C@H]3[C@@H](CO)N(C)c4ccc(-c5ccccc5F)cc4[C@H]32)=N1 (some centres undefined)
    -11	-15
[55] C[C@@H]1CN([C@H](C)CO)C(=O)c2cccc(NS(=O)(=O)c3ccccc3)c2O[C@@H]1CN(C)Cc1ccc(-c2ccccc2)cc1
    -17	-24
[56] COc1ccc(S(=O)(=O)N[C@H]2CC[C@@H](CC(=O)O)O[C@H]2CO)cc1
    19	15
[57] COc1cccc(-c2ccc(CC[C@H]3O[C@H]4CC[C@@H](CO)O[C@H]4C[C@H]3NC(=O)c3cnccn3)cc2)c1
    0	-9
[58] CCCNC(=O)N1[C@@H]2CNC[C@H]1C2c1ccc(-c2ccc(C#N)cc2)cc1 (some centres undefined)
    -9	3
[59] COc1ccc(S(=O)(=O)Nc2ccc3c(c2)C(=O)N([C@H](C)CO)C[C@H](C)[C@@H](CN(C)C(=O)NC(C)C)OCCCC[C@H](C)O3)cc1
    2	2
[60] CNC[C@@H]1Oc2ccc(NC(=O)CCC(F)(F)F)cc2CC(=O)N([C@@H](C)CO)C[C@H]1C
    5	12

Next section.
Fields: Vaccinia stage Venus	Vaccinia stage
[61] COc1ccccc1-c1cnc2c(c1)C(=O)N([C@H](C)CO)C[C@@H](C)[C@@H](CN(C)C(=O)c1ccccc1)O2
    2	-7
[62] O=C(C[C@H]1CC[C@H]2[C@@H](COC[C@H](O)CN2Cc2nccs2)O1)NCc1ccccc1
    2	3
[63] CN(C)CC#Cc1ccc([C@H]2[C@@H](CO)N3CCCCN(CC4CCOCC4)C[C@@H]23)cc1
    0	29
[64] CN(C)CCCNC(=O)C[C@H]1CC[C@H]2[C@@H](COC[C@H](O)CN2CC2CCCCC2)O1
    6	3
[65] O=C(O)C[C@@H]1C[C@@H]2c3cc(NC(=O)Nc4ccccc4)ccc3O[C@@H]2[C@H](CO)O1
    7	12
[66] C[C@@H]1CN([C@@H](C)CO)C(=O)Cc2cc(NC(=O)CCCCCC(=O)Nc3ccccc3N)ccc2O[C@H]1CN(C)S(=O)(=O)c1cn(C)cn1
    16	21
[67] CCC(=O)N(C)C[C@@H]1Oc2ncc(C#CCc3ccccc3)cc2C(=O)N([C@@H](C)CO)C[C@@H]1C
    10	12
[68] C[C@H]1CN([C@@H](C)CO)C(=O)c2cc(-c3cccnc3)cnc2O[C@H]1CN(C)C(=O)c1ccccc1F
    8	18
[69] COCC(=O)Nc1ccc2c(c1)C(=O)N(C)C[C@@H](OC)[C@@H](C)CN(Cc1cc(F)ccc1F)[C@@H](C)CO2
    -11	-13
[70] CC(C)NC(=O)Nc1ccc2c(c1)C(=O)N([C@@H](C)CO)C[C@@H](C)[C@H](CN(C)CC1CCCCC1)O2
    6	6
[71] Cc1ccc(S(=O)(=O)N2C[C@H](O)COC[C@H]3O[C@@H](CC(=O)NCC4CCCCC4)CC[C@@H]32)cc1
    -14	-17
[72] C[C@H](CO)N1C[C@H](C)[C@@H](CN(C)S(=O)(=O)c2ccccc2F)OCc2cnnn2CCCC1=O
    3	19
[73] CCCNC(=O)N[C@@H]1CC[C@H](CCNS(=O)(=O)c2cccc(F)c2)O[C@H]1CO
    4	4
[74] Cc1noc(C)c1S(=O)(=O)Nc1ccc2c(c1)C(=O)N([C@H](C)CO)C[C@H](C)[C@@H](CN(C)C(=O)NC(C)C)OCCCC[C@H](C)O2
    3	11
[75] Cc1noc(C)c1S(=O)(=O)N(C)C[C@H]1Oc2c(NS(=O)(=O)c3cn(C)cn3)cccc2C(=O)N([C@@H](C)CO)C[C@H]1C
    7	11
[76] CCC(=O)N1CCC2(CC1)CN(S(C)(=O)=O)[C@@H](CO)c1c2c2ccc(OC)cc2n1C
    8	14

Some of these compounds in order of SMILES length, lowest first:
Fields: Vaccinia stage Venus	Vaccinia stage
[73] CCCNC(=O)N[C@@H]1CC[C@H](CCNS(=O)(=O)c2cccc(F)c2)O[C@H]1CO
    4	4
[76] CCC(=O)N1CCC2(CC1)CN(S(C)(=O)=O)[C@@H](CO)c1c2c2ccc(OC)cc2n1C
    8	14
[62] O=C(C[C@H]1CC[C@H]2[C@@H](COC[C@H](O)CN2Cc2nccs2)O1)NCc1ccccc1
    2	3
[65] O=C(O)C[C@@H]1C[C@@H]2c3cc(NC(=O)Nc4ccccc4)ccc3O[C@@H]2[C@H](CO)O1
    7	12
[72] C[C@H](CO)N1C[C@H](C)[C@@H](CN(C)S(=O)(=O)c2ccccc2F)OCc2cnnn2CCCC1=O
    3	19
[67] CCC(=O)N(C)C[C@@H]1Oc2ncc(C#CCc3ccccc3)cc2C(=O)N([C@@H](C)CO)C[C@@H]1C
    10	12
[68] C[C@H]1CN([C@@H](C)CO)C(=O)c2cc(-c3cccnc3)cnc2O[C@H]1CN(C)C(=O)c1ccccc1F
    8	18
[70] CC(C)NC(=O)Nc1ccc2c(c1)C(=O)N([C@@H](C)CO)C[C@@H](C)[C@H](CN(C)CC1CCCCC1)O2
    6	6
[61] COc1ccccc1-c1cnc2c(c1)C(=O)N([C@H](C)CO)C[C@@H](C)[C@@H](CN(C)C(=O)c1ccccc1)O2
    2	-7
[66] C[C@@H]1CN([C@@H](C)CO)C(=O)Cc2cc(NC(=O)CCCCCC(=O)Nc3ccccc3N)ccc2O[C@H]1CN(C)S(=O)(=O)c1cn(C)cn1
    16	21
[74] Cc1noc(C)c1S(=O)(=O)Nc1ccc2c(c1)C(=O)N([C@H](C)CO)C[C@H](C)[C@@H](CN(C)C(=O)NC(C)C)OCCCC[C@H](C)O2
    3	11
